# ALR H2O2 inh – inhibitors of human sulfhydryl oxidase ALR; purified ALR, DTT oxidation, H2O2 HRP-luminol luminescence; inhibition, % (concentration not given with the values); 290,000 tested, 3.8% active; AID 485317;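 active = mean and each replicate at 75% or more; inconclusive = only one of the two met; inactive = neither met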;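 also: stock transfer was 7.5 nL into about 7.5 µL; 0% = neutral wells and 100% = wells with inactivated enzyme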
# FGF22 binding – shifts melting point of recombinant human FGF22 | recombinant FGF22 thermal shift, SYPRO orange fluorescence; percent of sucrose octasulfate shift, DMSO zero | AID 651658 | 340,000 tested, 1.5% active | calls only at 9.99 µM;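 active = melting point raised past a set limit in the mean and every replicate; inconclusive = no clear call; three in four hits are not shown here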
# LANA-H2B inh – blocks KSHV LANA binding to histone H2A/H2B | 320,000 tested, 0.6% active | inhibition, % (no concentration beside the values) | AID 2629 | cell-free LANA-H2A/H2B peptide, fluorescence polarization; in the data active = inhibition mostly above about 10%, no sharp cut-off; inactive = mostly below about 6.7%;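 also: stock transfer was 7.5 nL into about 10 µL; 0% = median of vehicle wells and 100% = median of positive control wells; one replicate is shown; the record names a cut of 25% in any replicate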
# Target sequence (Q9QR71 whole entry, looked up): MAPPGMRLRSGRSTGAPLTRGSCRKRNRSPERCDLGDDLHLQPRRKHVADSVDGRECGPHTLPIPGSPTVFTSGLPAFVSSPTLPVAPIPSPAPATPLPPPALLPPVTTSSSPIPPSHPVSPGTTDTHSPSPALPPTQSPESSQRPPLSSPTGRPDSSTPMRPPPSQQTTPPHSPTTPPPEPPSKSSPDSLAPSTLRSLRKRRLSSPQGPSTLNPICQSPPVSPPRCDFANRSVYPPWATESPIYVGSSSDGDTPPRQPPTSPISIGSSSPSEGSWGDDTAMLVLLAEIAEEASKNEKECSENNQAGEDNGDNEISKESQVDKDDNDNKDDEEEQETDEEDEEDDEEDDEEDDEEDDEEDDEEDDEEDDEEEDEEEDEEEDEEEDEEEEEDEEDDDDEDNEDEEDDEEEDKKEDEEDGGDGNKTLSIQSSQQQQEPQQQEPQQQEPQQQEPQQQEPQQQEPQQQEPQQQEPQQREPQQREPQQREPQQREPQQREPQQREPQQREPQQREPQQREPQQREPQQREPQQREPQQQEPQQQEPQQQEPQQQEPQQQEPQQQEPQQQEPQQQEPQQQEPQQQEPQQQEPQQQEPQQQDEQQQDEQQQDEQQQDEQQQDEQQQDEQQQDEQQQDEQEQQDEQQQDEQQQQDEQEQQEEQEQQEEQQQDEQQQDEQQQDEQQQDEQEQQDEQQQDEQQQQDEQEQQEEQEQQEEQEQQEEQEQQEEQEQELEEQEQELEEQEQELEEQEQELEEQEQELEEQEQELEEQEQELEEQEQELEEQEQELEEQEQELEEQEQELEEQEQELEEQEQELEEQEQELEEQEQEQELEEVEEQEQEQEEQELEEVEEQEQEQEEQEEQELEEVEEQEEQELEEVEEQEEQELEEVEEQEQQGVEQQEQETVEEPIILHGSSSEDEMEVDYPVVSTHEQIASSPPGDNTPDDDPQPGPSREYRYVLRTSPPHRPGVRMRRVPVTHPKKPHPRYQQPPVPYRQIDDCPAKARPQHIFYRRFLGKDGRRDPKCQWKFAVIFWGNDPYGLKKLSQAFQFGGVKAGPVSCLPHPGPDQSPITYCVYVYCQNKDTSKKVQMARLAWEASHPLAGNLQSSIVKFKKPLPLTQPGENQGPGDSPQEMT
# UCH37 DUB inh – inhibitors of human deubiquitinating enzyme UCH37; Q9Y5K5; AID 588478; inhibition, % (concentration not given with the values); purified proteasome/UCH37, Ub-AMC cleavage fluorescence; 330,000 tested, 0.33% active;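 active = mean of two replicates above 20%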;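 also: 0% = compound-free wells with enzyme and 100% = wells lacking proteasome; stock transfer was 100 nL into about 20 µL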
#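 Schedule: 30 min plus 25 min, room temperature / Material: human UCH37 within purified proteasomes / Technique: AMC fluorescence intensity at 355/460 nm / Buffer or medium: pH 7.4 Tris-HCl (50 mM) with ovalbumin, ATP-MgCl2, DTT / Controls: wells without proteasome as full block, compound-free enzyme plus substrate as uninhibited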
# E coli growth – inhibitors of Escherichia coli growth; OD600, 23 h; stronger effect = lower value; OD600 absorbance (concentration not given with the values); 330,000 tested, 0.21% active; AID 1053175;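 active = OD600 absorbance below the run mean of sample wells minus 3.6 SD, in any replicate, cut at about 0.56 in these data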;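 also: stock transfer was 300 nL into about 60 µL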
# B2AR ag – activates human beta-2 adrenergic receptor causing internalization. Am2.2-beta2AR cells, FAP receptor internalization, flow cytometry; reference of the scale not given here. 340,000 tested, 0.43% active. P07550. response, % (concentration not given with the values). AID 504454;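 active = response above a set limit, near 3 SD of response in nonfluorescent compounds, cut at about 42% in these data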;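 also: stock transfer was 100 nL into about 11 µL; a reference agonist was the positive control; negative values mostly stem from fluorescent compounds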
# HNF4A DNA FP – change in binding of human HNF4 alpha to DNA. HNF4a-FITC DNA binding, fluorescence polarization, 1 h. activity change, % at 10 µM. 360,000 tested, 0.3% active; in the data active = activity change above about 30%, passing the limit was not always enough;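 also: controls were the assay level and a saturating level of protein; the project sought stronger binding though the title names inhibitors; some compounds called inactive have numbers as strong as hits; positive values seem to mean higher polarization but the record does not say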
# Starred values were filed as active, the others as inactive; i = inactive; ? = inconclusive; . = not tested or not shown; + = active, no number. Not all compounds are listed. The share of hits here may be higher or lower than overall.
SMILES,ALR H2O2 inh,FGF22 binding,LANA-H2B inh,UCH37 DUB inh,E coli growth,B2AR ag,HNF4A DNA FP
Cc1cc(C(=O)COC(=O)Cn2cnc3c2c(=O)n(C)c(=O)n3C)c(C)n1C,0,.,4.7,3.3,0.77,6,0.5
Cc1cc(C)cc(OCC(=O)NNC(=O)c2ccoc2C)c1,-3,.,-6.4,3.6,0.71,7,-1.7
COc1ccc(S(=O)(=O)N2CCc3cc4c(cc3C2C)OCCCO4)cc1 (centres undefined),-4,i,-2.3,0.2,0.69,2,0.0
COc1cc(/C=C(\NC(C)=O)C(=O)Nc2ccc(NC(C)=O)cc2)ccc1OC(C)=O,45,.,-1.0,6.1,.,-6,-2.3
Cc1cc(C)nc(N(C#N)Cc2cccc([N+](=O)[O-])c2)n1,0,.,3.1,2.0,0.72,5,-0.2
O=[N+]([O-])c1ccc2nc(NS(=O)(=O)c3ccccc3[N+](=O)[O-])sc2c1,-6,+,1.0,13,0.64,2,16
COc1ccccc1CNC(=O)c1oc2ccc(S(=O)(=O)N3CCOCC3)cc2c1C,1,i,-0.6,0.5,0.66,2,1.1
COc1ccc(CNC(=O)C2CCN(S(=O)(=O)N3CC(C)CC(C)C3)CC2)cc1 (centres undefined),-4,i,-2.9,4.5,0.7,2,0.4
Cc1cccc(N(C)C(=O)c2cnn(-c3ccccc3)c2C)c1,-40,i,12,1.6,0.67,5,3.0
COc1cc(OC)c(C2C(C#N)=C(N)OC3=C2C(=O)CC(C)C3)cc1OC (centres undefined),-6,.,1.9,2.6,0.71,4,-1.2
Cc1cccc(/C(N)=N/OC(=O)CCCc2ccccc2)c1,-3,i,-0.6,-0.8,0.69,1,4.3
CCOC(=O)C1CCN(CC(O)COCc2ccc(Cl)cc2)CC1 (centres undefined),-6,i,-0.3,2.6,0.7,8,-0.3
COc1ccc(N(CC(=O)O)S(=O)(=O)c2ccc(C)cc2)cc1Cl,-11,i,4.8,4.9,0.65,0,-1.1
COCCCN(C(=S)Nc1c(C)cc(C)cc1C)C(C)c1ccncc1 (centres undefined),.,.,0.6,1.4,0.69,1,3.2
CC(=O)N1CCN(C(=O)c2ccco2)CC1,5,i,1.5,2.9,0.67,0,-3.5
O=C(C1CCCO1)N1CCN(S(=O)(=O)c2cccc3nsnc23)CC1 (centres undefined),1,.,5.9,-0.7,0.73,1,-2.6
NNc1nc(-c2ccccc2)cc(-c2ccccc2)n1,-12,i,2.7,1.6,0.7,-4,-3.0
Cc1ccc(OCC(=O)N(Cc2ccc(C)o2)C2CCS(=O)(=O)C2)cc1 (centres undefined),0,i,-0.8,-0.2,0.69,-7,0.4
Cc1c(C(=O)NCc2ccc3c(c2)OCO3)oc2ccc(S(=O)(=O)N3CCCCCC3)cc12,-4,.,-0.4,5.1,0.76,-8,1.0
N/C(=N\OC(=O)c1cccc([N+](=O)[O-])c1)c1ccccn1,7,i,2.5,.,.,-6,-3.7

# 6 consecutive compounds already listed, quoted:
SMILES,ALR H2O2 inh,FGF22 binding,LANA-H2B inh,UCH37 DUB inh,E coli growth,B2AR ag,HNF4A DNA FP
CC(=O)N1CCN(C(=O)c2ccco2)CC1,5,i,1.5,2.9,0.67,0,-3.5
O=C(C1CCCO1)N1CCN(S(=O)(=O)c2cccc3nsnc23)CC1 (centres undefined),1,.,5.9,-0.7,0.73,1,-2.6
NNc1nc(-c2ccccc2)cc(-c2ccccc2)n1,-12,i,2.7,1.6,0.7,-4,-3.0
Cc1ccc(OCC(=O)N(Cc2ccc(C)o2)C2CCS(=O)(=O)C2)cc1 (centres undefined),0,i,-0.8,-0.2,0.69,-7,0.4
Cc1c(C(=O)NCc2ccc3c(c2)OCO3)oc2ccc(S(=O)(=O)N3CCCCCC3)cc12,-4,.,-0.4,5.1,0.76,-8,1.0
N/C(=N\OC(=O)c1cccc([N+](=O)[O-])c1)c1ccccn1,7,i,2.5,.,.,-6,-3.7

# The list goes on:
SMILES,ALR H2O2 inh,FGF22 binding,LANA-H2B inh,UCH37 DUB inh,E coli growth,B2AR ag,HNF4A DNA FP
Cc1cc2nc(C3CCCN(C(=S)Nc4ccccc4C)C3)[nH]c2cc1C (centres undefined),0,.,-7.0,5.7,0.65,6,0.5
Cc1nc2ccccc2nc1Nc1cccc(Cl)c1,-3,i,6.8,-27,0.6,8,5.7
O=C(CN1CCOCC1)Nc1ccc(S(=O)(=O)N2CCCCCC2)cc1,-10,.,0.9,4.9,0.74,-4,-0.7
O=C(c1cccs1)C1C(c2ccc(Br)cc2)NC(=S)NC1(O)C(F)(F)F (centres undefined),0,.,5.8,4.7,0.65,-5,2.9
O=C(NCCc1cccc(Cl)c1)c1cccnc1,-2,.,0.3,0.8,0.72,2,3.1
COc1cc(C(C)=O)ccc1OCC(O)CN1CCN(c2c(C)cccc2C)CC1 (centres undefined),2,.,-2.9,.,.,-5,45*
O=C1CCCC2=C1C(O)(C(F)(F)F)C(=O)N2Cc1ccccc1 (centres undefined),-14,.,-3.8,-0.9,0.68,0,-1.9
COc1ccc(N2C(N)=NC(N)=NC23CCCC3)cc1,-15,.,1.1,4.4,0.77,2,1.8
FCCCOc1ccc(-c2nccc(-c3ccc(Br)cc3)n2)cc1,-6,.,0.0,0.8,0.73,1,1.9
CCN(CC)C(=O)CSc1nc2[nH]ncc2c(=O)[nH]1,-1,i,0.8,1.0,0.68,-1,2.8
COc1cccc(C2CC(c3ccc(C)cc3)=NN2C(=O)c2ccccc2F)c1OC (centres undefined),0,i,-0.4,0.9,0.69,14,3.9
COc1ccc2[nH]c(=O)c(CN(CCCN(C)C)C(=O)Nc3ccccc3)cc2c1,-22,.,-7.3,-285,0.71,0,2.7
Cc1ccc(C(=O)Nc2cccc(-c3ccc(N4CCOCC4)nn3)c2)cc1C,.,i,-4.7,1.7,0.62,20,0.0
CCOc1ccc(-c2cc(CCCC(=O)NCc3ccc(C)cc3)no2)cc1,1,i,3.3,2.3,0.82,3,-0.5
O=C(C1CCN(S(=O)(=O)N2CCC3(CC2)OCCO3)CC1)N1CCc2ccccc2C1,-8,i,3.0,4.3,0.65,-20,0.8
CC(C)NC(=O)NC(=O)COC(=O)c1ccc(NC(=O)CC#N)cc1,99*,.,-5.2,4.2,0.75,-6,2.6
CC1CCc2sc3nc(N4CCN(CCO)CC4)n4ncnc4c3c2C1 (centres undefined),4,.,-2.5,-1.8,0.76,5,-0.4
CN(C)CCCOc1nn(Cc2ccccc2)c2ccccc12,-11,i,-4.2,1.4,.,2,0.5
CN1C(=O)N(c2cccc3ccccc23)C(n2cncn2)C1(C)C (centres undefined),-4,.,0.1,-1.3,0.68,-4,2.2
Cc1ccc(-c2nc(C#N)c(N3CCCCC3)o2)cc1,-9,i,3.1,-62,0.72,0,0.1
CS(=O)(=O)c1nc(S(=O)(=O)c2ccc(Cl)cc2)c(NCCCn2ccnc2)s1,3,i,4.7,1.8,0.65,0,-3.2
O=C(CSc1ncn[nH]1)Nc1cc(S(=O)(=O)N2CCCC2)ccc1Cl,-9,i,-2.2,4.1,0.73,2,7.5
COc1ccc(/C=N/NS(=O)(=O)c2ccccc2)cc1OC(=O)c1ccc(C)cc1,.,.,1.0,.,.,4,-1.2
COc1ccc(N=CC=C2OC(C)(C)C(C)(C)O2)cc1OC,29,i,-3.3,-8.4,0.7,-2,-0.9
COc1cccc(C(=O)C[n+]2cccc3cc(OC)ccc32)c1,.,i,-3.2,3.8,0.67,-86,-2.3
O=C(COC(=O)C12CC3CC(CC(O)(C3)C1)C2)Nc1ccccc1OC(F)F,-10,.,4.4,-1.2,0.69,3,-1.1
CCN(CC)S(=O)(=O)c1ccc(NC(=O)Nc2cccc(C(F)(F)F)c2)cc1,0,.,-7.2,-0.1,0.63,10,-3.2
COc1cc(C(CC(=O)O)n2cnnn2)ccc1OC(C)C (centres undefined),-3,i,-1.8,1.4,0.7,10,0.7
Cc1cccc(Cn2c(-c3ccc[nH]c3=O)nc3ccccc32)c1,-5,i,-0.7,-337,0.69,-2,-2.9
COc1ccc(C2C(C(=O)N3CC(C)CC(C)C3)c3ccccc3C(=O)N2C)cc1 (centres undefined),0,.,2.9,0.8,0.7,3,1.8
CCOc1cccc(/C=N/NC(=S)Nc2cc(S(=O)(=O)N3CCOCC3)ccc2N2CCOCC2)c1O,2,i,-3.0,.,.,9,-0.4
COc1ccccc1C(=O)N/C(=C\c1ccc2c(c1)OCO2)C(=O)NCCc1nc2ccccc2[nH]1,-6,i,1.0,2.4,0.72,-4,-2.9
O=C(NC(=S)N1CCOCC1)c1cn(-c2ccccc2)nc1-c1ccc(F)cc1,.,i,.,5.3,0.66,-1,0.1
NC(=O)NC1NC(=O)NC1=O (centres undefined),-4,i,4.0,5.2,0.72,0,-1.5
O=C(COc1ccccc1C(=O)c1cnn(-c2ccccc2)c1)Nc1ccccc1,2,i,1.3,2.7,0.68,4,0.8
CCOC(=O)[C@@H]1[C@H]2COc3ccc(Br)cc3[C@@H]2N2C(=O)N(c3ccc(Cl)cc3)C(=O)[C@]12C,-1,i,4.9,-0.2,.,-1,-0.3
COc1ccc(CN(C)C(=O)c2oc3ccccc3c2CSC)cc1F,-1,i,-0.5,5.2,0.65,-4,-1.7
Cc1ccc(OCC(=O)Nc2cccc(S(=O)(=O)N3CCCCCC3)c2)c([N+](=O)[O-])n1,.,i,-2.7,6.1,0.68,-7,0.1
O=[N+]([O-])c1cc2c(cc1CN1CCN(c3ccccc3)CC1)OCO2,12,i,-0.7,1.4,0.64,4,-1.8
COc1ccc(NS(=O)(=O)N2CCOCC2)cc1,-18,i,0.7,1.4,0.69,8,-0.1
CCc1oc(C(=O)OC)cc1CSC(=N)N,.,i,-0.2,2.7,0.64,6,3.1
O=c1c(OC2OC(CO)C(O)C(O)C2OC2OC(CO)C(O)C(O)C2OC2OC(CO)C(O)C(O)C2O)c(-c2ccc(O)c(O)c2)oc2cc(O)cc(O)c12 (centres undefined),99*,i,4.3,9.2,0.73,-1,-5.2
CCn1c(SCC(=O)N/N=C/C=C\c2ccccc2[N+](=O)[O-])nc2ccccc21,4,.,-1.3,.,.,-3,5.4
CCOc1ccc2c(c1)C(C)=CC(C)(C)N2S(=O)(=O)c1ccc(F)cc1,-1,i,-2.1,3.8,0.7,-3,-2.2
O=C(O)Cn1nc2c3c(cccc3c1=O)-c1ccccc1-2,-6,i,-2.8,-66,0.6,-9,2.1
CCC(C)NC(=O)c1cn(CC)c2ccc(S(=O)(=O)N(C)C)cc2c1=O (centres undefined),2,.,1.2,5.3,0.74,-27,1.9
Cc1ccccc1-c1nn[nH]n1,-4,.,-1.7,-1.1,0.74,-4,2.0
C/C(=N\NC(=O)c1cccc(Cl)c1)C1C(=O)c2ccccc2C1=O,?,i,-2.5,.,.,8,6.7
O=C(COc1cc2oc(=O)cc(-c3ccccc3)c2cc1Cl)NCc1ccccn1,-7,i,-1.6,-12,0.67,-7,2.3
CCn1c(N2CCN(C(=O)C34CC5CC(CC(C5)C3)C4)CC2)nc2ccccc21,12,.,3.2,1.1,0.64,-8,2.6
Cc1ccc(CNC(=O)CNS(=O)(=O)c2cccc3nsnc23)cc1,.,.,.,2.0,0.77,3,4.3
COc1ccc(S(=O)(=O)N2CCCC2)cc1C(C)C,-22,i,8.2,-0.5,0.72,1,8.1
O=C(c1cccnc1)c1ncc(C(F)(F)F)cc1Cl,-5,i,-1.5,2.8,0.67,-7,-0.4
CC1CCN(S(=O)(=O)c2ccc3c(c2)n(C)c(=O)n3C)CC1,-3,i,-2.0,-0.3,0.63,-7,5.0
COc1cccc(Nc2c([N+](=O)[O-])cncc2[N+](=O)[O-])c1,-42,i,3.2,7.1,0.69,2,1.5
Nc1c(C(=O)CSc2ccccn2)c(=O)[nH]c(=O)n1C1CC1,-1,i,-4.1,2.9,0.68,20,-3.7
S=C1NCCOCCOCCOCCOCCN1,-1,i,4.7,5.0,0.72,-6,2.5

# Screening data deposited in PubChem by several laboratories.
